Calb FLC: affects C. albicans growth with fluconazole. C. albicans CaCi-2 (fluconazole-resistant clinical isolate) + fluconazole, Alamar Blue growth, 48 h. growth inhibition, % (no concentration beside the values). 300,000 tested, 0.57% active;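 active means most replicates above 75%; inconclusive means exactly half above 75%; inactive means most below 75%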;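 further: all wells also contain fluconazole at 8 µg/ml as a sub-toxic cotreatment; 0% = median of DMSO wells and 100% = median of geldanamycin control wells; wells of about 8 µL received 7.5 nL stock; the first replicate is given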
Vif TR-FRET: inhibitors of Vif binding to APOBEC3G peptide, primary screen, biochemical, TR-FRET, GST-Vif 1-94, biotin-A3G peptide, dose response retest (AID 1117319); TR-FRET GST-Vif / biotin-A3G peptide binding; higher % means a stronger effect; test concentration not given here; strong numbers were not always called active; one-dose inhibition, %; IC50 in µM for titrated hits; 260,000 tested, 0.57% active;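 active means above the screen mean plus three standard deviations and confirmed in dose response; inconclusive means results disagree or hit not tested in dose response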;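 further: Vif residues 1-94 fused to GST binding biotinylated APOBEC3G peptide 110-148; 0% = full assay without inhibitor and 100% = GST in place of GST-Vif; retest series ran down from 100 µM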
ALR inh: blocks human ALR sulfhydryl oxidase activity. P55789. purified ALR, DTT oxidation, H2O2 HRP-luminol luminescence. inhibition, % (concentration not given with the values). 290,000 tested, 3.8% active. AID 485317;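 active means mean and each replicate at 75% or more; inconclusive means only one of the two met; inactive means neither met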;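 further: stock transfer was 7.5 nL into about 7.5 µL; 0% = neutral wells and 100% = wells with inactivated enzyme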
Target sequence (P55789 whole entry, looked up): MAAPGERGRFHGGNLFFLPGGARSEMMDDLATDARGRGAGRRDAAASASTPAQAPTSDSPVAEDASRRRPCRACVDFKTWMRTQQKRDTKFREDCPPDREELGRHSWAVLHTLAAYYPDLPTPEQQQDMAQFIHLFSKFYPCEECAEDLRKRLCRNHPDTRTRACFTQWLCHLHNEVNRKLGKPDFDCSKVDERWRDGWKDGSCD
HNF4A DNA FP: change in binding of human HNF4 alpha to DNA. HNF4a-FITC DNA binding, fluorescence polarization, 1 h. 360,000 tested, 0.3% active. activity change, % at 10 µM. P41235. AID 1224865; in the data active means activity change above about 30%, passing the limit was not always enough;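 further: controls were the assay level and a saturating level of protein; the project sought stronger binding though the title names inhibitors; some compounds called inactive have numbers as strong as hits; positive values seem to mean higher polarization but the record does not say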
Target sequence (P41235 whole entry, looked up): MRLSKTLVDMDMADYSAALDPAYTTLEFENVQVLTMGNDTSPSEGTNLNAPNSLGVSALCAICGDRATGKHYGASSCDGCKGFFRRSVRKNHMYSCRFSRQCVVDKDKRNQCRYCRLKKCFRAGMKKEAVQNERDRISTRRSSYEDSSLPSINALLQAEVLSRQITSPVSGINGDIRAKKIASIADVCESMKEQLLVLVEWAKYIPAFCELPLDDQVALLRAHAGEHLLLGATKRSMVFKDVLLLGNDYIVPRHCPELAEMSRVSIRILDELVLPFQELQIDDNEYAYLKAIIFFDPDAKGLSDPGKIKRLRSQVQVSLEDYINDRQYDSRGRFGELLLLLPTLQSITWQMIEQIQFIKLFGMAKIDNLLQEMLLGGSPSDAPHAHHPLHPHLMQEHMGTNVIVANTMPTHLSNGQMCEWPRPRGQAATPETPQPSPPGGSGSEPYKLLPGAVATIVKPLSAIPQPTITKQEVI
RanGTP-Imp inh: disruptors of Ran-importin-beta complex formation – biochemical, FRET, CFP-Ran, YFP-importin-beta, homogeneous, primary screen; cell-free CFP-Ran/YFP-importin-beta FRET ratio; inhibition, % (test concentration not listed); 300,000 tested, 1.1% active;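 active means most replicates above 15%; inconclusive means exactly half above 15%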;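 further: 0% = DMSO wells and 100% = Ran loaded with GDP instead of GTP; wells of about 40 µL received 100 nL stock; the first replicate is given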
LANA-H2B inh: blocks KSHV LANA binding to histone H2A/H2B; AID 2629; cell-free LANA-H2A/H2B peptide, fluorescence polarization; inhibition, % (test concentration not listed); 320,000 tested, 0.6% active; Q9QR71; in the data active means inhibition mostly above about 10%, no sharp cut-off; inactive means mostly below about 6.7%;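 further: stock transfer was 7.5 nL into about 10 µL; 0% = median of vehicle wells and 100% = median of positive control wells; one replicate is shown; the record names a cut of 25% in any replicate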
Beta2AR agonist: activates human beta-2 adrenergic receptor causing internalization; response, % (no concentration beside the values); Am2.2-beta2AR cells, FAP receptor internalization, flow cytometry; reference of the scale not given here; AID 504454; P07550; 340,000 tested, 0.43% active;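 active means response above a set limit, near 3 SD of response in nonfluorescent compounds, cut at about 42% in these data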;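 further: stock transfer was 100 nL into about 11 µL; a reference agonist was the positive control; negative values mostly stem from fluorescent compounds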
Target sequence (P07550 whole entry, looked up): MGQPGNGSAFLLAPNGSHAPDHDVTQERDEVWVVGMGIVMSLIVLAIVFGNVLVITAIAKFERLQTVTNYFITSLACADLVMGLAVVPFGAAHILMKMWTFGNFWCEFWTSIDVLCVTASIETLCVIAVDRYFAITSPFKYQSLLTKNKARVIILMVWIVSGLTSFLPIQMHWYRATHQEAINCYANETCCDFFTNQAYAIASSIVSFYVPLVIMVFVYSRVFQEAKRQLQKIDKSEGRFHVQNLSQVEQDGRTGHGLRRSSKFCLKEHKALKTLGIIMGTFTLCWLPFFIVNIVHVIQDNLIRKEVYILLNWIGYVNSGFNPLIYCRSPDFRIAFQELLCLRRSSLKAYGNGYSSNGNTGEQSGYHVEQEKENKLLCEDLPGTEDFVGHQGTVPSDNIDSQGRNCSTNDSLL
Numbers without * were called inactive; u = inconclusive; x = not tested or not shown; & = joins results of further samples.

SMILES	Calb FLC	Vif TR-FRET	ALR inh	HNF4A DNA FP	RanGTP-Imp inh	LANA-H2B inh	Beta2AR agonist
O=C(N=C1c2ccccc2CN1c1ccc(F)c(F)c1)c1cccnc1	x	4.0%	-4.2	-4.6	x	1.2	5.5
C#CCOCCOCCOCCNc1nc(N2CCN(C(=O)Cn3cc(CC(C)O)nn3)CC2)nc(N2CCN(C(=O)[C@H](CCCCN)n3cc(CCC(=O)O)nn3)CC2)n1 (some centres undefined)	3.7	1.3%	-9.2	5.0	-1.6	3.0	6.9
CCOc1ccc2cc(C(=O)NCc3ccccc3)c(=N)oc2c1	-2.8	-0.1%	-7.5	-0.1	4.6	2.0	19.7
O=C(O)/C(=C/c1cccnc1)NC(=O)c1ccccc1	-0.4	x	-2.9	-2.7	3.7	-10.6	3.2
COc1ccc(C(=O)N2CCN(Cc3cc(OC)ccc3OC)CC2)cc1	-1.5	-8.2%	-24.0	-0.7	1.6	-3.9	-5.7
Clc1ccc(-c2cn3c(n2)CCC3)cc1	5.3	3.7%	x	-0.5	2.1	0.3	10.7
COc1ccc(CCNC(=O)NC23CC4CC(CC(C4)C2)C3)cc1OC	5.9	-6.7%	4.9	-4.3	2.4	-1.0	0.8
Cc1ccc(NC(=O)Cc2noc3ccccc23)c(C)c1	-5.7	x	-2.3	0.5	-1.7	-0.3	1.2
O=C(c1ccccc1)c1ccc(OCCO)cc1	-6.3	-4.0%	-0.8	1.9	x	-1.8	7.0
COc1ccc(/C=C(\NC(=O)c2ccccc2)C(=O)NCc2ccco2)cc1OC	3.1	2.1%	-5.1	2.3	-1.9	4.7	0.3
CCOC(=O)c1cnc(Nc2nc3ccccc3o2)nc1CSC(=S)N(CC)CC	3.8	16.0%	19.7	0.9	6.6	4.7	-12.0
CCOC(=O)/C(N=Nc1c(C)n(C)n(-c2ccccc2)c1=O)=C(/O)c1ccccc1	-4.3	2.8%	5.2	0.8	5.4	-0.5	-2.9
Cc1ccc(CCC(=O)NCc2ccccc2)o1	-7.8	7.8%	x	2.9	0.8	3.8	-2.1
COc1ccccc1N1CCN(S(=O)(=O)c2cn(C)c(=O)n(C)c2=O)CC1	-10.7	31.5%	49.3	-4.0	-1.0	4.8	-4.5
Cc1cc2oc(=O)cc(CN3CCCCC3)c2cc1C	0.1	-8.9%	-3.6	3.5	2.9	1.3	0.9
O=S(=O)(NCCOc1ccccc1)c1ccc2ccccc2c1	-1.6	-9.8%	-2.1	1.3	-1.3	3.8	10.4
CCN(CC)CCn1c(=N)n(CC(O)COc2ccccc2)c2ccccc21 (centres undefined)	3.9	x	-7.3	1.6	u	-0.2	18.4
CCc1nnc(NC(=O)c2ccc(S(=O)(=O)N(CC(C)C)CC(C)C)cc2)o1	x	70.6%	58.8	0.9	x	-0.7	-1.3
CCC(C)(C)NC(=O)C(c1ccc(C)cc1)N(CCN1CCOCC1)C(=O)CNC(=O)c1cccs1 (centres undefined)	9.8	2.1%	-8.3	0.9	2.7	-3.0	-11.7
CCOC(=O)c1[nH]c(C)c(C(=O)NCc2ccco2)c1C	0.7	x	-8.2	1.0	-1.6	-4.9	-0.1
COc1ccccc1N=C(C)C1=C(O)COC1=O	-5.3	u	-8.9	-5.1	-0.2	2.0	0.7
CC(C)C1COC(c2cccn2Cc2ccccc2Cl)=N1 (centres undefined)	u	10.2%	-37.1	1.4	1.1	19.6*	3.5
CCOc1ccc(CCNC(=O)c2ccc3ccccc3n2)cc1OCC	-18.7	0.1%	-5.1	5.6	1.5	-14.7	9.9
CCCCC(CC)CNC(=O)CC1Nc2c3ccccc3nc(=S)n2C1=O (centres undefined)	-3.3	-23.6%	-2.5	-0.5	-7.7	3.0	1.4
Cc1cc(Nc2ccc(F)cc2)nc(N)n1	-4.7	21.6%	-3.8	-0.5	1.9	0.2	-2.5
O=[N+]([O-])c1ccc(F)cc1OCc1nc(-c2cccs2)no1	58.4	-0.4%	x	2.2	1.4	x	-3.9
O=C(NCCCC1CCCC1)C1CCC(=O)N(Cc2ccc(Cl)cc2)C1 (centres undefined)	-22.1	x	4.5	-1.9	1.8	-3.2	-10.2
COc1cccc2c1cc1c(=O)n(CC(=O)NCc3ccccn3)nc(C)n12	8.0	x	-3.9	3.9	0.7	-10.0	-1.7
O=C(Nc1ccnn1C1CCN(Cc2cccc(OCCO)c2)CC1)C1CCOC1 (centres undefined)	0.1	x	-11.7	-2.1	-0.4	0.9	-6.4
NS(=O)(=O)c1cccc(NC(=O)COC(=O)/C(=C/c2cccs2)c2cccs2)c1	-0.3	x	-14.1	-1.5	0.3	-10.3	1.4
N#Cc1cnc(SCC(=O)N2CCCCC2)nc1N	0.1	-2.0%	x	1.1	0.5	-3.8	-4.4
Cc1ccc(-c2ccc(SCC(=O)Nc3ccc4c(c3)OCCO4)nn2)cc1	-27.0	x	-2.5	6.2	0.9	-10.5	-0.8
CC12CN(C(=O)c3ccc([N+](=O)[O-])cc3)CC(C)(CN(C(=O)c3ccc([N+](=O)[O-])cc3)C1)C2=O	-3.8	18.8%	-3.8	x	-0.8	-4.3	x
CC1CN(c2nc3ccccc3nc2SCC(=O)Nc2ccc(F)cc2)CC(C)O1 (centres undefined)	5.7	x	14.6	0.8	u	-1.5	0.2
CC(C)Oc1ccc(S(=O)(=O)N2CCCCC2)cc1NC(=O)CN1CCCC1c1cccs1 (centres undefined)	x	1.8%	-5.5	8.0	x	2.2	-3.0
COc1ccccc1S(=O)(=O)Cc1ccc(C(=O)NC2CCCCCC2)o1	-11.2	-3.7%	-7.2	2.4	-1.2	1.4	-0.8
COC(=O)c1ccc(S(=O)(=O)N2CCC(c3nc4ccccc4o3)CC2)cc1	-9.8	12.6%	-0.6	-0.7	2.7	1.9	-1.1
CCCc1nc2oc3c(NCc4ccccn4)ncnc3c2c2c1COC(C)(C)C2	2.7	-11.5%	x	-4.1	1.9	4.3	-6.4
CC(=O)Nc1ccc(S(=O)(=O)N2CCC(c3nc4ccccc4[nH]3)CC2)cc1	-6.5	-0.9%&-0.6%	x	1.6	u	x	-6.3
CCOc1ccc(Oc2ccccc2NC(=O)CSCC(=O)Nc2cc(C)on2)cc1	-5.8	-7.4%	x	2.1	-0.1	2.1	3.7
CCOc1cc(C=NNC(=O)c2cccc(S(=O)(=O)N3CCCC3)c2)ccc1O	x	x	95.1*	1.6	x	0.6	9.8
Cc1ccsc1C(=O)OCC(=O)Nc1cccc(S(=O)(=O)N2CCOCC2)c1	-21.6	2.2%	-5.2	-0.3	-3.6	-6.4	17.7
O=C(OCc1ccc(Cl)c(Cl)c1)c1ccccn1	28.7	-0.6%	2.1	-2.9	1.6	0.4	-5.6
N#Cc1cc2cc3c(cc2nc1SCC(=O)OC1CCCCC1)OCO3	-0.3	-72.0%	-7.5	1.7	-1.9	-6.0	1.5
CC(C)C(=O)NC(=S)Nc1nnn(C)n1	-8.8	0.3%	-0.3	-0.8	2.5	4.2	-0.8
O=C(CSc1nc2ccccc2c(=O)n1CCCO)Nc1ccc2c(c1)OCCO2	x	-5.8%	x	0.5	x	x	-4.7
COc1cc(C(O)C(=O)O)ccc1O (centres undefined)	x	x	33.9	1.5	x	1.0	1.7
CCN(CC)C(=O)C(=O)Nc1cc(C(F)(F)F)ccc1Cl	-23.6	0.5%	0.1	-2.5	-5.1	-2.0	0.2
COC(=O)c1ccc(CNC(=O)c2ccc(NS(=O)(=O)c3ccc4[nH]c(=O)[nH]c4c3)cc2)cc1	0.3	-7.3%	-5.2	-2.9	2.0	4.4	-0.4
Cc1nn(CC(=O)Nc2sc3c(c2C#N)CCC(C(C)(C)C)C3)c(C)c1[N+](=O)[O-] (centres undefined)	-0.3	-8.5%	-4.5	5.2	1.0	-1.7	10.4
COCCn1c(=O)[nH]c2cc(C(=O)N3CCN(c4ccccc4F)CC3)ccc2c1=O	0.1	x	1.1	4.0	3.9	-2.0	-5.6
COc1ccccc1N/C=C/c1onc(C)c1[N+](=O)[O-]	6.2	-9.4%	19.7	69.2*	-4.5	0.6	2.9
COc1cc(C2C(C#N)=C(C)NC3=C2C(=O)CC(C)(C)C3)ccc1O (centres undefined)	-15.9	6.1%	41.6	3.8	-0.6	0.6	-3.9
CCOC(=O)CSc1nc2ccc(S(=O)(=O)N3CCOCC3)cc2[nH]1	-5.6	-0.5%	3.1	1.9	u	4.5	7.1
O=C(NCCCN1CCOCC1)c1cccnc1SCc1ccccc1Cl	-18.7	-6.4%	-3.5	-1.3	-1.1	-2.1	9.1
Nc1ccc(-c2nc3cc(N)ccc3n2CCO)cc1	28.5	69.2%	98.3*	-3.5	-2.9	-2.3	-3.6
COc1ccc(-c2[nH]nc3c2C(c2ccoc2)C(C#N)=C(N)O3)cc1 (centres undefined)	-2.6	7.3%	24.9	-2.1	1.0	0.3	11.1
O=C(Nc1ccccc1)O/N=C1\CCCCC1c1ccc([N+](=O)[O-])cc1[N+](=O)[O-] (centres undefined)	-5.2	15.2%	-19.9	-2.5	-1.2	3.0	-3.2
COc1ccc(C2CC(=O)N(CCCN(C)CCc3ccc(OC)c(OC)c3)C2)cc1 (centres undefined)	13.4	x	0.9	0.0	5.6	-0.2	-1.8
O=c1cc(CSc2nnnn2-c2ccccc2)nc2scc(-c3ccccc3)n12	-4.6	17.0%&-0.7%	0.7	6.1	-1.9	0.6	-7.0
Carrying on.
SMILES	Calb FLC	Vif TR-FRET	ALR inh	HNF4A DNA FP	RanGTP-Imp inh	LANA-H2B inh	Beta2AR agonist
Cc1ccc(S(=O)(=O)N(C)CC(=O)NCc2ccncc2)cc1	-12.7	3.9%	-15.9	-0.1	-3.5	9.4	1.8
COCCN1C(=O)c2oc3ccccc3c(=O)c2C1c1ccc(C(=O)OC)cc1 (centres undefined)	-2.2	0.5%	x	3.7	-4.7	7.6	-8.4
O=C(Cn1cnc2cc([N+](=O)[O-])ccc2c1=O)NC(c1ccccc1)c1ccccc1	14.5	1.8%	-14.7	0.6	-0.7	8.1	-0.6
CC1CCCN(C(=O)c2nn(C)c3c2CSc2ccccc2-3)C1 (centres undefined)	-6.0	x	40.1	3.4	3.1	-1.6	7.4
N#Cc1ccsc1NC(=O)COC(=O)c1cc(Br)ccc1O	1.7	-105.8%	x	13.1	-2.4	-1.3	8.8
COc1ccc(-c2cc(C(=O)OCC(=O)N3CCCCC3)c3ccccc3n2)cc1OC	x	-10.3%	-6.2	-3.4	x	4.4	0.5
COCCN(C(=O)C1CC(=O)N(Cc2ccccc2)C1)c1nc(-c2ccc([N+](=O)[O-])cc2)cs1 (centres undefined)	x	2.9%	-5.0	2.2	x	-3.9	13.3
CN(Cc1ccccc1)S(=O)(=O)c1ccc(S(=O)(=O)N(Cc2ccc(F)cc2)C2CCCC2)cc1	35.7	-2.3%	-0.6	-4.3	0.4	-2.7	0.3
CCOc1ccc(C(=O)Oc2ccc(NC(C)=O)cc2)cc1	1.6	4.5%	4.5	x	3.1	-1.9	x
CCC1CCCCN1C(=O)c1ccc2c(c1)C(=O)N(c1ccc(C)cc1)C2=O (centres undefined)	-5.4	4.9%	-0.7	1.8	2.0	1.3	2.2

Reprinted at random: two records from the list, in no set order.
SMILES	Calb FLC	Vif TR-FRET	ALR inh	HNF4A DNA FP	RanGTP-Imp inh	LANA-H2B inh	Beta2AR agonist
Cc1ccsc1C(=O)OCC(=O)Nc1cccc(S(=O)(=O)N2CCOCC2)c1	-21.6	2.2%	-5.2	-0.3	-3.6	-6.4	17.7
CCN(CC)CCn1c(=N)n(CC(O)COc2ccccc2)c2ccccc21 (centres undefined)	3.9	x	-7.3	1.6	u	-0.2	18.4

Bioassay records as filed in PubChem BioAssay.

This is a random part of the collection; about 6.3% have a hit in one of these screens.
